MARV entry inh = blocks Marburg virus binding to or entry into cells; Marburg virus pseudotyped entry inhibition, cell reporter; control for the full effect not named in the record; about a third of the inactives were read at about 46 µM; Potency, µM (highest dose often 37.8 µM), for the others: top-dose activity change, negative = inhibition, hits mostly inhibitors; actives 1.8% (n = 300,000); active = well fitted inhibition curve with a large enough effect; inconclusive = small, poorly fitted or top-dose-only effect, or effect the other way; inactive = flat fitted curve, though single readings scatter; tested in HEK293 cells; about a fifth of its hits are not listed in these tables; also: % is scaled to controls: 0 for no effect and ±100 for the full control effect; luciferase read-out
NS1 inh = influenza NS1 inhibition; S. cerevisiae slowed by influenza A NS1, growth recovery by OD600; AID 2326; Potency, µM (doses to about 46.1 µM), without a hit: at the top dose activity, positive = more growth; actives 0.4% (n = 270,000); active means well fitted rising curve with a large enough effect; inconclusive means small, poorly fitted or top-dose-only effect; inactive means no such curve, though single readings can be large or run the other way; also: nearly all actives have a fitted effect of over 50% in size
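In this qHTS, NS1 from influenza A is expressed in budding yeast, where it slows growth. Cells are switched from glucose to 2% galactose medium (pH 6.0, -URA), treated with compound, and growth recovery is read at OD600.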
Cruzain Triton = cruzain (T. cruzi) inhibition with detergent; purified cruzain, Z-FR-AMC fluorescence, 0.01% Triton; AID 1478; P25779; Potency, µM, for the others: max response, negative = inhibition, actives largely listed as inhibitors; actives 0.43% (n = 200,000);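 also: plate controls were neutral wells for no effect and buffer without enzyme for full effect; nearly all actives have a fitted effect of over 40% in size; top concentration of the series not given in the record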
Target sequence (P25779 123-467 limits assumed): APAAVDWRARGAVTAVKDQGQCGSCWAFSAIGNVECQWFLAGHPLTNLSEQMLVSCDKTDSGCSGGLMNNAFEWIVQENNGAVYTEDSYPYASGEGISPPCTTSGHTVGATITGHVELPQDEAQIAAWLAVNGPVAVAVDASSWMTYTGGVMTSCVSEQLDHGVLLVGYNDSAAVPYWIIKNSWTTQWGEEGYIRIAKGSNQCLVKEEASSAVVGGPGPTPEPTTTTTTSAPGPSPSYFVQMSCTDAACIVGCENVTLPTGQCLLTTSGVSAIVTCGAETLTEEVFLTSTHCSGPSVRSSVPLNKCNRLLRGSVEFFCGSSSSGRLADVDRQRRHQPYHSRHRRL
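15 min RT preincubation of 1.5 nM cruzain with compound, then 2 uM Z-FR-AMC added; kinetic AMC fluorescence, 60 s delta. Triton X-100 0.01%, pH 5.5.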
Cruzain noTriton = cruzain (T. cruzi) inhibition without detergent | Potency, µM, without a hit: max response, negative = inhibition, usual class: inhibitors | purified cruzain, Z-FR-AMC fluorescence, no detergent | actives 2.3% (n = 200,000) | P25779 | AID 1476;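 also: plate controls were enzyme without inhibitor for no effect and buffer without enzyme for full effect; nearly all actives have a fitted effect of over 40% in size; top concentration of the series not given in the record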
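Detergent-free condition (0.00005% Triton X-100) in acetate buffer pH 5.5 with DTT. 1.5 nM enzyme and compound were pre-mixed 15 min, then 2 uM Z-FR-AMC substrate added; reaction progress from fluorescence change between first and third reads (60 s).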
StopGo reporter = FMDV 2A StopGo reporter, luciferase signal; human cells with a luciferase reporter of 2A StopGo recoding; control for the full effect not named in the record; Potency, µM (highest dose often 57.9 µM), for inactives: at the top dose signal change, negative = less light; actives 1.2% (n = 410,000); AID 1159524; active = well fitted falling curve with a large enough effect; inconclusive = small, poorly fitted or top-dose-only effect; inactive = no such curve, though single readings can be large or run the other way; tested in HEK293T cells; also: % is scaled to controls: 0 for no effect and ±100 for the full control effect; nearly all actives have a fitted effect of over 45% in size; luciferase light after 4 h
RE007 growth inh = less growth of the S. pombe RE007 Vpr strain | Potency, µM (highest dose often 92.2 µM), for inactives: top-dose activity change, negative = less growth | S. pombe RE007 Vpr strain, BacTiter-Glo ATP luminescence, 24 h; control for the full effect not named in the record | actives 0.21% (n = 360,000); active = well fitted falling curve with a large enough effect; inconclusive = small, poorly fitted or top-dose-only effect; inactive = no such curve, though single readings can be large or run the other way;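 also: % is scaled to controls: 0 for no effect and ±100 for the full control effect; nearly all actives have a fitted effect of over 50% in size; the assay follows cell death caused by Vpr and the record does not say whether a fall means rescue or toxicity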
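Fission yeast strain RE007, carrying one chromosomally integrated HIV-1 vpr copy, was seeded at OD 0.01 in PMG+AL medium with 23 nL pinned compound. After 24 h at 30 °C and 99% humidity, viability was read by BacTiter-Glo luminescence.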
SARS PLpro yeast = blocks SARS-CoV papain-like protease in a yeast assay | S. cerevisiae expressing SARS-CoV PLpro, growth rescue; control for the full effect not named in the record | Potency, µM (top dose mostly 32.9 µM), for inactives: at the top dose activity, positive = growth rescue | actives 0.19% (n = 330,000) | AID 485353; active means well fitted rising curve with a large enough effect; inconclusive means small, poorly fitted or top-dose-only effect; inactive means no such curve, though single readings can be large or run the other way; also: 0% is about no effect; nearly all actives have a fitted effect of over 55% in size; growth read by luminescence after 48 h
Lassa entry inh = Lassa virus entry inhibition; Lassa virus pseudotype entry inhibition, cell reporter; control for the full effect not named in the record; Potency, µM (top dose mostly 37.9 µM), for inactives: top-dose activity change, negative = inhibition, most hits filed as inhibitors; actives 1.2% (n = 300,000); AID 540256; active means well fitted inhibition curve with a large enough effect; inconclusive means small, poorly fitted or top-dose-only effect, or effect the other way; inactive means flat fitted curve, though single readings scatter; tested in HEK293 cells; also: % is scaled to controls: 0 for no effect and ±100 for the full control effect; nearly all actives have a fitted effect of over 50% in size; luciferase read-out
* marks the source's active call; other numbers are inactive results; ? = inconclusive; · = no result given; & = joins results of further samples; [ ] = remark or other dose. Unless noted, calls follow the shape of the dose curve; as a rule, active = well fitted curve in the direction sought with a large enough effect; inconclusive = small, poorly fitted or top-dose-only effect, or another doubt; inactive = no such curve, though single readings can be large; an effect the other way counts as inactive or inconclusive. Potency is read from the fitted curve at half-maximal effect.

Molecule | MARV entry inh | NS1 inh | Cruzain Triton | Cruzain noTriton | StopGo reporter | RE007 growth inh | SARS PLpro yeast | Lassa entry inh
CC(C)[C@H](N)C(=O)OCCOCn1cnc2c(=O)[nH]c(N)nc21 | · | · | 3.0% | 4% | -11%&-5% | 7%&10%[18.4 µM] | · | ·
O=c1[nH]c(CSc2nc3ccccc3[nH]2)nc2c1cnn2-c1ccccc1 | ? | -8% | -3.5% | 12% | 22µM* | 7% | -3% | ?
COC(=O)/C(=C\Nc1ccc(OC)cc1)NC(=O)c1ccc(Cl)cc1Cl | -7% | -25% | -7.5% | 6% | 6% | -1% | · | -26%
CC1(C)Cc2c(cnn2-c2ccccc2)C(NC(=O)CCCN2CCCCC2=O)C1 (stereo not given) | 0% | 9% | · | · | -4% | -3% | 21% | 8%
Cn1c(SCC(=O)NC2CCCCC2)nnc1-c1ccncc1 | ? | -19% | · | · | 0% | 11% | 0% | -1%[46.1 µM]
Cc1ccccc1OCC(=O)Nc1ccc2nc(SCC(=O)N(C)c3ccccc3)sc2c1 | 0%[46.1 µM] | · | -3.5% | -18% | ? | · | · | -17%[46.1 µM]
CCCCOP(=O)(c1ccc(N(C)C)cc1)C(O)c1ccc(N(C)C)cc1 (stereo not given) | ? | 1% | · | · | -5% | -6% | 9% | -15%[46.1 µM]
O=C(Nc1nccs1)c1cc(-c2ccccn2)nc2c(Cl)cccc12 | -35% | -4% | · | · | -21% | -5% | 2% | -7%
Cn1cccc1C(=O)Nc1nc(-c2ccccn2)cs1 | ? | -109% | -9.4% | -6% | -16% | ? | -39% | ?
CCN(CC)C(=O)c1cn(C)c(=O)c2cc(OC)c(OC)cc12 | -17% | -1% | -3.1% | -1% | 13% | -15% | -2% | 14%
Nc1nc(SCC(=O)Nc2cc(S(=O)(=O)N3CCOCC3)ccc2Cl)n[nH]1 | 20%[46.1 µM] | · | · | · | -1% | -14% | -1% | 0%
CCN(C(=O)Cn1cnc2c1c(=O)n(C)c(=O)n2C)c1ccccc1C | · | · | -1.4% | 3% | -11% | · | · | -14%[46.1 µM]
COc1ccc2c(c1)CC(C(=O)Nc1cccc(C)c1C)CO2 (stereo not given) | · | · | -0.9% | 6% | -14% | · | · | -6%[46.1 µM]
N#Cc1ccc(C(=O)OCC(=O)Nc2ccc(N3CCOCC3)cc2)cc1 | 16%[46.1 µM] | · | · | · | 7% | 0% | 3% | -6%
COc1ccc(CNC(=O)COC(=O)CCC(=O)c2cccs2)cc1 | -4%[46.1 µM] | -3% | · | · | -10% | 0% | -1% | 25%
NC(=O)c1cc(Cc2ccccc2)sc1NC(=O)c1ccco1 | ? | -29% | -14% | -11% | 54%[activator] | -14% | -29% | ?
Cc1noc(C)c1CSCC(=O)Nc1nc2ccc(S(C)(=O)=O)cc2s1 | 2%[46.1 µM] | · | · | · | -1% | -1% | -3% | -2%
COc1ccc(-n2ncc(N(C)n3cccc3)c(Cl)c2=O)cc1 | ? | -70% | -2.2% | -10% | 22% | -7% | -1% | ?
Cc1ccc(-c2nnc(SCC#CCOC(=O)c3cccs3)o2)cc1 | ? | -66% | -4.2% | -18% | 34%[activator] | 3% | ? | 8%
CC(C)C[C@H](NC(=O)c1[nH]cnc1C(=O)N[C@@H](C)C(=O)OCc1ccccc1)C(=O)OC(C)(C)C | · | 13µM* | · | · | -8% | -8% | -2% | ·
O=C(CCN1C(=O)COc2ccccc21)NCCN1CCc2ccccc2C1 | -16% | -8% | 8.1% | 6% | · | -5% | 1% | 9%
COc1ccc(OC)c(CC(=O)NC(c2ccccc2)c2ccccc2)c1 | -2%[46.1 µM] | -1% | · | · | -8% | -10% | -1% | -2%
Cc1ccccc1NC(=O)COC(=O)CN1C(=O)NC(C)(C)C1=O | 4%[46.1 µM] | 8% | 3.7% | 6% | -25% | -1% | 10% | -3%
CNC(=O)/C(C#N)=C\c1ccc(CNS(=O)(=O)c2ccccc2)o1 | ? | 14% | -6.3% | -4% | -18% | 15% | 8% | -1%
COc1ccc(N2CCN(CC(=O)N3c4ccccc4CC3C)CC2)cc1 (stereo not given) | 18%[46.1 µM] | -5% | · | · | 8% | 2% | 0% | -16%[46.1 µM]

Random excerpt: five records from the list
Molecule | MARV entry inh | NS1 inh | Cruzain Triton | Cruzain noTriton | StopGo reporter | RE007 growth inh | SARS PLpro yeast | Lassa entry inh
Cc1ccccc1NC(=O)COC(=O)CN1C(=O)NC(C)(C)C1=O | 4%[46.1 µM] | 8% | 3.7% | 6% | -25% | -1% | 10% | -3%
N#Cc1ccc(C(=O)OCC(=O)Nc2ccc(N3CCOCC3)cc2)cc1 | 16%[46.1 µM] | · | · | · | 7% | 0% | 3% | -6%
COc1ccc(N2CCN(CC(=O)N3c4ccccc4CC3C)CC2)cc1 (stereo not given) | 18%[46.1 µM] | -5% | · | · | 8% | 2% | 0% | -16%[46.1 µM]
CCN(C(=O)Cn1cnc2c1c(=O)n(C)c(=O)n2C)c1ccccc1C | · | · | -1.4% | 3% | -11% | · | · | -14%[46.1 µM]
COC(=O)/C(=C\Nc1ccc(OC)cc1)NC(=O)c1ccc(Cl)cc1Cl | -7% | -25% | -7.5% | 6% | 6% | -1% | · | -26%

Next results follow.
Molecule | MARV entry inh | NS1 inh | Cruzain Triton | Cruzain noTriton | StopGo reporter | RE007 growth inh | SARS PLpro yeast | Lassa entry inh
CCCNC(=O)C1CCN(c2nc(C)cc(C)n2)CC1 | -7% | 6% | 5.0% | -2% | -14% | -12% | -3% | -2%
Cc1c(S(=O)(=O)Nc2ccc3c(c2)OCCO3)cnn1C | 8%[46.1 µM] | · | · | · | 5% | -11% | 2% | -5%
CCN(CC)CCNC(=O)CNC(=O)c1nn(-c2ccc(OC)c(OC)c2)c(=O)c2ccccc12 | -1% | 1% | · | · | 1% | 9% | 0% | 22%
COc1cc(NC(=O)c2cccs2)ccc1NC(=O)c1cc2ccccc2o1 | · | 14% | · | · | -25% | 2% | -1% | ·
O=C(c1ccccc1NS(=O)(=O)c1cccs1)N1CCCC1 | ? | 3% | 7.8% | 8% | -9% | -9% | 5% | 5%
COc1ccc(-n2c(-c3ccco3)nc3c(cnn3-c3ccccc3Cl)c2=O)cc1 | -18%[46.1 µM] | · | -7.9% | 3% | ? | · | · | ?
O=C(Nc1nnc(C2CC2)s1)c1cc(Cl)sc1Cl | 12%[46.1 µM] | -24% | · | · | 29% | -6% | -4% | ?
Cc1nc(N2CCOCC2)nc(N2CCC(C)CC2)c1[N+](=O)[O-] | · | -10% | · | · | -7% | -2% | -1% | ·
COc1ccccc1OC(=O)CCN1c2ccccc2Sc2ccccc21 | ? | ? | -4.6% | -13% | -6% | -9% | 4% | 9%
COc1ccc(NC(=S)Nc2ccccc2)cc1 | · | -8%&9%&8% | 1.9% | 0% | 34%&21%[activator] | 8%&-3% | 5%&-1% | ·
C#CC(C)(C)NC(=S)NC1CC2C=CC1C2 (stereo not given) | 2% | -1% | · | · | 7% | -13% | 0% | 10%
Cc1cc(C)c(-c2cc(NC(=O)CSc3n[nH]c(N)n3)n(-c3ccccc3)n2)cc1C | -29% | 11% | -6.8% | 20% | 16% | 10% | 0% | -16%
CCOC(=O)N1CCC2(CC1)C(C#N)=C(N)Oc1n[nH]c(CSc3ccc(C)cc3)c12 | -7% | -13% | -11% | -7% | -20% | 25% | 0% | ?
COc1ccccc1C(=O)NCCCN1CCCC1=O | 1% | 7% | 3.0% | 5% | 13% | 11% | 5% | 1%
Cc1ccc(-c2nn(CCC(=O)NC(C)C)c(=O)c3ccccc23)cc1 | -9%[46.1 µM] | -7% | · | · | -15% | -6% | 3% | -22%[46.1 µM]
O=C(N/N=C/c1ccco1)c1cc(C2CC2)[nH]n1 | 2% | 3% | · | · | 34%[activator] | -5% | -1% | -13%
CCc1noc(C)c1C(=O)NNC(=O)COc1ccc(C)c(C)c1 | 2% | · | · | · | -12% | -1% | -4% | 1%
O=C(NCc1csc(-c2cccs2)n1)Nc1cccc(Cl)c1 | 7% | -2% | · | · | 5% | 5% | 0% | 8%
COc1cc(NC(=O)c2ccco2)ccc1NC(=O)C(C)C | 26% | -7% | 0.4% | ? | 35%[activator] | 15% | -1% | 25%
COC(=O)C(NC(=O)c1cccnc1Cl)C(C)C (stereo not given) | 4%[46.1 µM] | -2% | · | · | -15% | 2% | 1% | 27%
C=CCn1cnc2c(c1=O)c1nc3ccccc3nc1n2/N=C/c1cccc(OC)c1OC | -26% | ? | 2.0% | ? | · | 6% | 4% | -19%
Nc1cc(-c2ccc(Br)cc2)nc2cc(-c3ccccc3)nn12 | 22%[46.1 µM] | · | · | · | 39%[activator] | -10% | -3% | 27%
O=C(c1oc(=O)c2ccccc2c1-c1ccccc1)N1CCN(C2CCCCC2)CC1 | -1% | -4% | -0.8% | -10% | -30% | -5% | 0% | ·
O=C(O)c1ccccc1C(=O)NC1CCCc2ccccc21 (stereo not given) | 6%[46.1 µM] | 6% | · | · | -8% | 19% | -2% | ·
O=S(=O)(NC1CCCCC1Oc1ccccc1)c1ccc(Cl)cc1 (stereo not given) | ? | -40% | -7.2% | 10% | -10% | 8% | -35% | -2%
CC1CC(C)(C)NC(=S)N1CCC(=O)NCCc1ccc(Cl)cc1 (stereo not given) | ? | · | · | · | -21% | -12% | -3% | -6%
CCOc1ccc(CNCc2c(C(=O)O)n(Cc3ccccc3C)c3cc(OC)ccc23)cc1OC | · | · | 0.0% | 1% | -4% | · | · | ?
Cc1ccccc1NC(=S)c1ccc2ccccc2n1 | · | 2% | · | · | 27% | -5% | -25% | ·
Cc1ccccc1CNC(=O)C(C)n1nc(C)n2c(cc3occc32)c1=O (stereo not given) | 4%[46.1 µM] | · | -0.4% | 8% | 4% | · | · | ·

From PubChem BioAssay
